Screening results deposited in PubChem BioAssay by National Center for Advancing Translational Sciences (NCATS).
Rango complex inh: inhibitors of Rango-importin beta complex formation | Rango CFP/YFP FRET sensor + importin beta, 45 min | Potency, µM (titrated, usually from 92.2 µM), for the others: at the highest dose inhibition of complex formation | 0.031% of 340,000 active | AID 540263; active = rising FRET ratio curve, often small or poorly fitted; inconclusive = mostly compound fluorescence or quenching in the first reads; inactive = flat curves in all reads;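 further: potency means the concentration at half of the fitted maximal effect; 0% = DMSO wells and 100% = buffer wells lacking importin beta; nearly all actives have a fitted effect of over 15% in size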
Target sequence (Q14974 whole entry, looked up): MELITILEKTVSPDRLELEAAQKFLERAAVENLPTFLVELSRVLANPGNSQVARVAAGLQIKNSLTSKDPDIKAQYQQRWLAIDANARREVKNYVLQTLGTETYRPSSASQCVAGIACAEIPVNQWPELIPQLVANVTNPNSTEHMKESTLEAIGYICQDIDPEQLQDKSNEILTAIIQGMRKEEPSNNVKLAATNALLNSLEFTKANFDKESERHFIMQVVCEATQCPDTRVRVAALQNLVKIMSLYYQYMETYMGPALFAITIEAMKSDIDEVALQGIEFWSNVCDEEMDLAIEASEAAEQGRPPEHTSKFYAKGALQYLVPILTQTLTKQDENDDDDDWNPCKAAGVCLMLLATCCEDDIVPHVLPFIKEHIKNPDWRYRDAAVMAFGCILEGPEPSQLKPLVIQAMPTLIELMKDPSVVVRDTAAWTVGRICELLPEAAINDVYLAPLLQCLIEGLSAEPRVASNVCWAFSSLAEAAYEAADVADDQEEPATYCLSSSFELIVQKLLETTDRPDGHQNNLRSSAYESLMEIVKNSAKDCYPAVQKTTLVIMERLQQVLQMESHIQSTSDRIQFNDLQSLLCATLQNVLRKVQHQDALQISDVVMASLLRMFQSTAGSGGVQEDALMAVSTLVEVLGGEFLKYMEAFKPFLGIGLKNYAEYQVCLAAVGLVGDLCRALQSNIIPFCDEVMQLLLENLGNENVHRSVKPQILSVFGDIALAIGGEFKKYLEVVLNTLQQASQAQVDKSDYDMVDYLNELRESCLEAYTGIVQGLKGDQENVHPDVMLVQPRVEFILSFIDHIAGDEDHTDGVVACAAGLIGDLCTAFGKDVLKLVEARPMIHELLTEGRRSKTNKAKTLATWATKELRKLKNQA
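Inhibition scored from the CFP 486 nm/YFP 530 nm FRET ratio 45 min after adding 0.125 microM importin beta to 50 nM Rango biosensor preincubated 5 min with compound (room temperature, PBS with DTT, Tween-20, BSA). No-importin wells as positive control.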
GLA inh pH 4.5: blocks human alpha-galactosidase A at pH 4.5. P06280. purified enzyme, 4-MU-alpha-Gal fluorescence, pH 4.5. activity change, negative = inhibition, % at 105 µM. 230,000 tested, under 10 active; inconclusive = small, poorly fitted or top-dose-only inhibition, or a rising curve; inactive = flat fitted curve, though single readings scatter; no compound was filed as active;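 further: 0% = full activity with enzyme and -100% = basal without enzyme; dose as in the result columns while the protocol names 77 µM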
miR-21 FLuc: raises the signal of a miR-21 reporter | Potency, µM (doses to about 38.3 µM), for the others: at the highest dose reporter change, positive = more light | AID 2288 | 340,000 tested, under 10 active | HeLa miR-21 FLuc reporter, luciferase, 48 h; active = well fitted rising curve with a large enough effect; inconclusive = small, poorly fitted or top-dose-only effect; inactive = no such curve, though single readings can be large or run the other way;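 further: % of control where 0% means no effect; miR-21 action dims this reporter so a rising signal means less miR-21 action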
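Compounds were titrated across several concentrations (up to approximately 40 uM) and incubated 48 hours with HeLa miR-21-FLuc reporter cells (miR-21 target sequence downstream of FLuc, endogenous miR-21). Readout was firefly luciferase luminescence after lytic detection reagent.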
Rango dissoc inh: inhibitors of RanGTP-induced Rango-importin beta complex dissociation | O95149+P62826 | Potency, µM (titrated, usually from 46.1 µM), without a hit: at the highest dose activity change, negative = inhibition | 0.071% of 340,000 active | Biochemical FRET Rango-importin beta, RanGTP-induced dissociation | AID 540253; active means falling FRET ratio curve, often poorly fitted, with flat reads before Ran was added; inconclusive means other falling curves, or compound fluorescence or quenching; inactive means flat or rising ratio curve;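 further: potency means the concentration at half of the fitted maximal effect; % of control where 0% means no effect; nearly all actives have a fitted effect of over 45% in size; -100% = wells without RanGTP and RCC1; the record marks most hits as doubtful in a second field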
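Compounds sat 5 min at room temperature with 0.1 uM Rango biosensor plus 0.25 uM importin beta, then FRET pre-read. RanGTP-RCC1 (0.6 uM Ran, 2mM GTP, 0.2 uM RCC1) added for 45 min, and the CFP/YFP post-read measured blocked complex dissociation.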
The depositor's hits bear a star; ? = inconclusive; / = not tested or not shown; & = joins results of further samples. This is a subset; count on the stated rates, not on these rows.

Every second line gives: Rango dissoc inh	GLA inh pH 4.5	miR-21 FLuc	Rango complex inh
NC(=O)c1ccc(NC(=O)CS(=O)(=O)c2cn(CC(=O)N3CCCC3)c3ccccc23)cc1
  -8%	/	3%	-1.0%
N#CCc1ccc(NC(=O)c2ccc(S(=O)(=O)N3CCCC3)cc2)cc1
  -1%	/	15%	-4.2%
CCn1c(N)c(C(=O)NCCOC)sc1=S
  -7%	4	0%	-0.7%
CCOC(=O)C1CCN(C(=O)c2cccc(NS(=O)(=O)c3ccc(F)c(F)c3)c2)CC1
  -6%	5	-5%	1.1%
Cc1ccc(-c2cc(C(=O)Nc3cnn(C(C)C)c3)no2)cc1
  -10%	-4	-16%	-0.7%
CCOC(=O)c1sc(NC(=O)C2CC(=O)N(c3ccccc3C)C2)nc1C (stereo not drawn)
  -4%	/	-7%	-0.5%
CCn1c(=O)cc(SCC(=O)Nc2cccc(SC)c2)c2ccccc21
  1%	-25	-3%	0.7%
CSc1nsc(SC)c1C(=O)OCC(F)(F)F
  9%	0	-2%	0.1%
N=c1oc2cc(O)ccc2cc1C(=O)Nc1ccc(Br)cc1
  ?	/	-38%	?
CC(=O)Nc1ccc(S(=O)(=O)Oc2ccc(C(=S)N3CCCCC3)cc2)cc1
  -3%	-4	7%	6.3%
C[C@H](CO)N1C[C@H](C)[C@@H](CN(C)C(=O)NC2CCCCC2)Oc2c(NS(=O)(=O)c3ccccc3)cccc2C1=O
  1%	/	/	-0.7%
C=CCOc1cccc(/C=N/NC(=O)CN2CCCCC2)c1
  -17%	/	0%	-7.8%
Cc1cc(C(=O)CN2C(=O)NC3(CCCc4sccc43)C2=O)c(C)n1-c1ccc(Cl)cc1 (stereo not drawn)
  0%	3	12%	-0.6%
COC(=O)/C=C1\SC(=Nc2ccccc2)NC1=O
  20%	3	-11%	0.3%
O=C(CN1CCN(c2ccccn2)CC1)Nc1cccc(S(=O)(=O)N2CCCC2)c1
  -3%	1	5%	0.4%
CCOC(=O)c1cnc2ccc(OC)cc2c1NCc1ccccc1
  8%	-2	8%	8.3%
CC1CCCC(C)N1CCCNC(=O)c1ccc2nc(N3CCOCC3)sc2c1 (stereo not drawn)
  7%	/	-10%	-4.8%
CC(C)[C@H](NC(=O)c1ccc(F)cc1)C(=O)OCC(=O)NC(=O)c1cccn1C
  -21%	-4	1%	-3.2%
Cc1cc2c(n1-c1ccc(C(N)=O)cc1)CC(C)(C)CC2=O
  0%	-5	3%	-2.3%
CCOC(=O)C1(Cc2cccc(Cl)c2)CCCN(C(=O)c2cn[nH]c2)C1 (stereo not drawn)
  4%	/	-6%	0.4%
COC(=O)c1ccc(C23CC4(C2)[C@H](CN(Cc2ccc(-c5ccccc5)cc2)[C@@H]4c2ccccc2)C3c2ccc(Cl)nc2)cc1 (stereo partly drawn)
  8%	2&-3	-7%	0.1%
Cc1nc(Cl)sc1C(=O)Nc1cccc(C(F)(F)F)c1
  -5%	/	/	1.4%
CC(=O)N/C(=C\c1ccc(Br)s1)C(=O)O
  11%	-2	0%	0.0%
Nc1c(N(Cc2ccco2)C(=O)COc2ccccc2Cl)c(=O)[nH]c(=O)n1Cc1ccccc1
  5%	/	/	-3.9%
O=C(Nc1cccc(Cl)c1)OCc1cn(-c2ccc(Cl)cc2)nn1
  8%	-2	-4%	1.6%
CCC(=O)Nc1nnc(S(=O)(=O)N2CCCC2)s1
  1%	/	2%	-2.4%
CCCC(=O)NC(=S)Nc1ccc(CN2CCOCC2)cc1
  -9%	0	-19%	-0.7%
CCCCSc1cc(=O)n(-c2ccccc2)nc1C(=O)OCC
  ?	2	0%	0.1%
O=C1CN(C(=O)COC(=O)c2ccc(N3CCCCCC3)c([N+](=O)[O-])c2)c2ccccc2N1
  -12%	-6	-5%	3.1%
Cc1ccnc(N2C3CCC2CC(O)(c2ccccc2)C3)n1 (stereo not drawn)
  -6%	-13	-4%	0.4%
Cc1ccccc1OCC(=O)N/N=C/c1cccn1C
  0%	-13	-12%	8.5%
O=C(NCc1ccc2c(c1)OCO2)c1cc2ccccc2oc1=O
  -11%	-3	-2%	1.6%
O=C(NCCS(=O)(=O)N1CCN(c2ccccc2F)CC1)c1ccc2c(c1)OCO2
  5%	/	/	-0.1%
COc1ccccc1-c1cc(C(F)(F)F)nc(S(=O)(=O)CCCC(=O)Nc2cccnc2Cl)n1
  2%	-7	?	2.2%
COc1ccc(C2C(C(C)=O)=C(O)C(=O)N2c2ccc(Br)cc2)cc1 (stereo not drawn)
  22%	/	-16%	-0.2%
Cc1nn(C)c2ncc(C(=O)c3cc(F)ccc3O)cc12
  0%	0	-7%	2.9%
CN1CCN(c2ccc(NC(=O)CSc3nnnn3-c3ccccc3F)cc2)CC1
  11%	/	-1%	-4.0%
CN(c1ccc(F)cc1)S(=O)(=O)c1ccc(Cl)c(C(=O)NC2(C)CCS(=O)(=O)C2)c1 (stereo not drawn)
  0%	/	/	1.0%
COc1ccc(NC(=O)CSc2nnc3ccc(-c4ccncc4)nn23)cc1OC
  ?	1	-1%	-0.6%
Cc1ccccc1CNC(=O)c1ccc(Cl)c([N+](=O)[O-])c1
  0%	-3	3%	-3.4%
Clc1ccc(CNC2CCCC2)c(Cl)c1
  0%	-1	-5%	-3.5%
COCCn1nnnc1SCC(=O)N1CCCCC1
  -8%	-9	-5%	-0.2%
C=C(C)c1ccc(C(C)(C)NC(=O)NCc2ccco2)cc1
  -3%	0	1%	0.4%
O=C(CCNC(=O)c1ccco1)Nc1ccc(OC(F)F)cc1
  -8%	/	-1%	-0.4%
CC(=O)c1sc(NC(=O)COc2ccc(Cl)cc2C)nc1C
  1%	3	-17%	2.3%
CC(SCc1nc2sc3c(c2c(=O)[nH]1)CCCC3)C(=O)Nc1ccccn1 (stereo not drawn)
  -2%	/	/	?
O=C(CSc1nnc2n1CCCN2)c1ccc(Cl)cc1
  11%	-2	-16%	2.8%
CCN(C(=O)Cc1ccc(NC2=NC3CS(=O)(=O)CC3S2)cc1)c1ccccc1 (stereo not drawn)
  ?	/	2%	-0.5%
C=CCNC(NC(=O)c1ccccc1)(C(=O)OCC)C(F)(F)F (stereo not drawn)
  2%	1	-1%	0.8%
COc1ccc(OC)c(C(=O)NC(CC(N)=O)c2ccc(NCc3ccccn3)c([N+](=O)[O-])c2)c1 (stereo not drawn)
  -24%	/	-7%	-3.1%
Nc1nc(CSC(=S)N2CCCCC2)nc(Nc2ccccc2)n1
  23%	-3	-72%	-1.9%
c1ccc(OCCOCCN2CCN(C(c3ccccc3)c3ccccc3)CC2)cc1
  18%	-9	17%	-0.6%
CC(C)(C)NC(=O)CN(C(=O)Cn1nnc(-c2ccc(Cl)cc2)n1)C1CCN(Cc2ccccc2)CC1
  1%	-24	-5%	-0.5%
c1ccc(-c2csc(-c3ccncc3)n2)cc1
  -14%	-2	-47%	-7.7%
O=C(c1cc2ccccc2o1)N1CCN(S(=O)(=O)c2ccc(F)c(F)c2F)CC1
  28%	/	/	0.2%
COc1cccc(C(=O)NNC(=O)C(=O)Nc2ccc(C)c(Cl)c2)c1
  8%	/	-8%	0.1%
OCC(CO)(CO)NC(=S)Nc1cc(Cl)cc(Cl)c1
  1%	6	-4%	0.0%
C/C(=N\Nc1ccc([N+](=O)[O-])cc1)c1ccc2c(c1)OCO2
  ?	-8	-39%	?
O=C(Nc1ccc(F)cc1)Nc1nnc(COc2ccccc2F)s1
  -8%	2	18%	3.9%
COc1ccc(C(O)c2nc3ccccc3s2)cc1 (stereo not drawn)
  /	-6	-14%	/

Continuation:
Every second line gives: Rango dissoc inh	GLA inh pH 4.5	miR-21 FLuc	Rango complex inh
CCCCNC(=O)CNC(=S)N(Cc1cc(OC)c(OC)c(OC)c1)C1CCCC1
  2%	12	-8%	4.1%
O=c1cc(C(Cl)(Cl)Cl)oc2c1ccc1ccccc12
  -19%	-4	-3%	-6.1%
CCOC(=O)c1cc(C#N)c(N2CCOCC2)nc1-c1ccccc1
  -1%	-8	-8%	-1.7%
CC(=O)Nc1ccc(NC(=O)COc2ccc3c(c2)CCC3)cc1
  1%	2	-1%	3.6%
COc1ccc(CCNC(=O)C(C)c2ccc([N+](=O)[O-])cc2)cc1 (stereo not drawn)
  7%	-2	2%	3.8%
O=C(NCCCN1CCCCCC1)C1CC(=O)N(CCc2ccccc2)C1 (stereo not drawn)
  -5%	0	-3%	4.1%
COc1ccc(C(=O)N(C)C2CCCCC2)cc1S(=O)(=O)N1CCOCC1
  -6%	/	/	0.4%
COc1cccc(C2=NOC(C(=O)Nc3cccc(C(C)=O)c3)C2)c1OC (stereo not drawn)
  -12%	1	0%	3.6%
CCn1c(CNC(=O)c2ccco2)nnc1SCC(=O)c1ccccc1
  -10%	-2	0%	-2.5%
Cc1ccccc1S(=O)Cc1ccc(C(=O)N2CCN(C(=O)c3ccco3)CC2)o1 (stereo not drawn)
  0%	/	2%	-1.2%
COc1ccc(C(=O)Nc2ccc(S(=O)(=O)Nc3onc(C)c3C)cc2)cc1OC
  13%	1	1%	-0.9%
O=C(Nc1cccc2ccccc12)N1CCN(c2ncccn2)CC1
  -2%	4	-3%	0.0%
COc1ccc(S(=O)(=O)N(C)C[C@H]2Oc3c(NC(=O)NC(C)C)cccc3C(=O)N([C@H](C)CO)C[C@@H]2C)cc1
  -7%	/	/	-0.6%
CCOc1cc(/C=C2\C(=O)N(Cc3ccco3)C(C)=C2C(=O)OC)ccc1O
  -21%	-4	1%	-0.5%
COc1ccc(-c2nn(CCC(=O)O)cc2/C=N/NC(N)=S)cc1
  4%	-3	-8%	-2.8%
CCOc1ccc(C2C(C#N)=C(N)N(N(C)C)C3=C2C(=O)CC(C)(C)C3)cc1 (stereo not drawn)
  -19%	/	-1%	0.3%
COc1ccc(OCCCC(=O)Nc2cc(S(=O)(=O)N3CCCCC3)ccc2C)cc1
  11%	/	/	-2.7%
CCC(C)c1ccc(NC(=O)c2ccco2)cc1 (stereo not drawn)
  -5%	/	4%	0.6%
Cc1ccc(NN2C(=O)C=C(c3ccccc3)C2=O)cc1
  -11%	-3	?	-0.2%
CC1(C(=O)OCC(=O)Nc2cccc(S(=O)(=O)NC3=NCCCCC3)c2)CC1(Cl)Cl (stereo not drawn)
  2%	1	5%	0.0%
COCCNC(=O)C(OC(=O)c1ccco1)c1ccccc1Cl (stereo not drawn)
  8%	/	-1%	-3.6%
CSC1=NC(=O)/C(=C/c2ccc(SC)cc2)S1
  -6%	-19	-30%	3.5%
COc1ccc2oc(C(=O)NC3CCCCC3)c(C)c2c1
  2%	/	-66%	-1.8%
O=C(NCC1CCCO1)c1ccc2nc(N3CCCCC3)sc2c1 (stereo not drawn)
  2%	-8	-59%	4.0%
Cc1c(N)cc(C(=O)N2CCOCC2)cc1[N+](=O)[O-]
  -16%	-3	-5%	3.4%
COc1cc2c(cc1OC)CN(c1nc(CN3CCCC3)nc3sc(C)c(C)c13)CC2
  -3%	1	1%	-2.2%
O=C(CN1C(=O)C2CCCCC2C1=O)Nc1nc(-c2ccccn2)cs1 (stereo not drawn)
  7%	9	20%	0.0%
C=CCn1cc(C(=O)N2CCN(c3ccccc3)CC2)c(=O)c2cc(S(=O)(=O)N3CCCC3)ccc21
  0%	/	1%	1.5%
CN1Cc2c(N3CCOCC3)nc3sc(C#N)c(N)c3c2CC1(C)C
  0%	9	-12%	-4.4%

By substructure: the compounds so far with an NH in an aromatic ring.
Every second line gives: Rango dissoc inh	GLA inh pH 4.5	miR-21 FLuc	Rango complex inh
CCOC(=O)C1(Cc2cccc(Cl)c2)CCCN(C(=O)c2cn[nH]c2)C1 (stereo not drawn)
  4%	/	-6%	0.4%
Nc1c(N(Cc2ccco2)C(=O)COc2ccccc2Cl)c(=O)[nH]c(=O)n1Cc1ccccc1
  5%	/	/	-3.9%
CC(SCc1nc2sc3c(c2c(=O)[nH]1)CCCC3)C(=O)Nc1ccccn1 (stereo not drawn)
  -2%	/	/	?
